# Compound activity as filed in PubChem.
# StopGo reporter = High Throughput Screening for Foot and Mouth Disease Virus Antivirals | human cells with a luciferase reporter of 2A StopGo recoding; control for the full effect not named in the record | Potency, µM (series often up to 57.9 µM), without a hit: at the top dose signal change, negative = less light | hit rate 1.2% among 410,000 | AID 1159524, 2015; active = well fitted falling curve with a large enough effect; inconclusive = small, poorly fitted or top-dose-only effect; inactive = no such curve, though single readings can be large or run the other way; tested in HEK293T cells; also: % is scaled to controls: 0 for no effect and ±100 for the full control effect; nearly all actives have a fitted effect of over 45% in size; luciferase light after 4 h
# Cruzain inh noDet = qHTS Assay for Promiscuous and Specific Inhibitors of Cruzain (without detergent); Cruzipain (Trypanosoma cruzi), P25779; purified cruzain, Z-FR-AMC fluorescence, no detergent; Potency, µM, without a hit: max response, negative = inhibition, most hits filed as inhibitors; hit rate 2.3% among 200,000; AID 1476, 2009;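 also: plate controls were enzyme without inhibitor for no effect and buffer without enzyme for full effect; nearly all actives have a fitted effect of over 40% in size; top concentration of the series not given in the record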
# Target sequence (P25779 123-467 limits assumed): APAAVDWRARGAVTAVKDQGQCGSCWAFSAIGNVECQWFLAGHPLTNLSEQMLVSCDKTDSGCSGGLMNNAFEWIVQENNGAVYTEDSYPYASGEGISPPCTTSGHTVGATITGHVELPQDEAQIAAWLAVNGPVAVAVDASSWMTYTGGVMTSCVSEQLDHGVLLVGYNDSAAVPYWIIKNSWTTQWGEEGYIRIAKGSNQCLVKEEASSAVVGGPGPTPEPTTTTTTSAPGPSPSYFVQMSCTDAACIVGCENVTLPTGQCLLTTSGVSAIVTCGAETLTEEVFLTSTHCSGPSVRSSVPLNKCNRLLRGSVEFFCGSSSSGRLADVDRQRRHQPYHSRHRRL
#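 Purified cruzain at 1.5 nM, pre-incubated 15 min with compound at room temperature in 100 mM sodium acetate pH 5.5, 5 mM DTT, 0.00005% Triton X-100. Reaction started with 2 uM Z-FR-AMC; AMC fluorescence increase over 60 s gives rate.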
# NS1 function inh = qHTS Assay for Inhibitors of Influenza NS1 Protein Function. Potency, µM (top dose mostly 46.1 µM), for inactives: at the top dose activity, positive = more growth. S. cerevisiae slowed by influenza A NS1, growth recovery by OD600. hit rate 0.4% among 270,000; active means well fitted rising curve with a large enough effect; inconclusive means small, poorly fitted or top-dose-only effect; inactive means no such curve, though single readings can be large or run the other way; also: nearly all actives have a fitted effect of over 50% in size
#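 OD600 was taken as the measure of yeast growth restored by compound in an NS1-expressing S. cerevisiae strain. Cells had been washed out of glucose medium and diluted 1:100 into galactose -URA medium, pH 6.0.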
# SARS PLpro yeast = qHTS of Yeast-based Assay for SARS-CoV PLP; S. cerevisiae expressing SARS-CoV PLpro, growth rescue; control for the full effect not named in the record; hit rate 0.19% among 330,000; Potency, µM (doses to about 32.9 µM), without a hit: at the highest dose activity, positive = growth rescue; active means well fitted rising curve with a large enough effect; inconclusive means small, poorly fitted or top-dose-only effect; inactive means no such curve, though single readings can be large or run the other way; also: 0% is about no effect; nearly all actives have a fitted effect of over 55% in size; growth read by luminescence after 48 h
# MARV entry inh = qHTS for inhibitors of binding or entry into cells for Marburg Virus; Marburg virus pseudotyped entry inhibition, cell reporter; control for the full effect not named in the record; about a third of the inactives were read at about 46 µM; Potency, µM (series often up to 37.8 µM), for the others: at the highest dose activity change, negative = inhibition, usual class: inhibitors; hit rate 1.8% among 300,000; active = well fitted inhibition curve with a large enough effect; inconclusive = small, poorly fitted or top-dose-only effect, or effect the other way; inactive = flat fitted curve, though single readings scatter; tested in HEK293 cells; about a fifth of its hits are not listed in these tables; also: % is scaled to controls: 0 for no effect and ±100 for the full control effect; luciferase read-out
# Cruzain Triton = qHTS Assay for Promiscuous and Specific Inhibitors of Cruzain (with detergent). Cruzipain (Trypanosoma cruzi), P25779. Potency, µM, without a hit: max response, negative = inhibition, actives largely listed as inhibitors. purified cruzain, Z-FR-AMC fluorescence, 0.01% Triton. hit rate 0.43% among 200,000;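 also: plate controls were neutral wells for no effect and buffer without enzyme for full effect; nearly all actives have a fitted effect of over 40% in size; top concentration of the series not given in the record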
#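 Detergent-containing arm of a paired screen for aggregation-based inhibition: 0.01% Triton X-100 present. Cruzain at 1.5 nM cleaved 2 uM Z-FR-AMC at pH 5.5 with 5 mM DTT; AMC fluorescence gain over 60 s measured activity.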
# Lassa entry inh = qHTS for Inhibitors of binding or entry into cells for Lassa Virus; Lassa virus pseudotype entry inhibition, cell reporter; control for the full effect not named in the record; Potency, µM (top dose mostly 37.9 µM), without a hit: top-dose activity change, negative = inhibition, hits mostly inhibitors; hit rate 1.2% among 300,000; AID 540256, 2011; active means well fitted inhibition curve with a large enough effect; inconclusive means small, poorly fitted or top-dose-only effect, or effect the other way; inactive means flat fitted curve, though single readings scatter; tested in HEK293 cells; also: % is scaled to controls: 0 for no effect and ±100 for the full control effect; nearly all actives have a fitted effect of over 50% in size; luciferase read-out
# RE007 growth inh = qHTS Assay for Inhibitors of the HIV-1 protein Vpr | S. pombe RE007 Vpr strain, BacTiter-Glo ATP luminescence, 24 h; control for the full effect not named in the record | hit rate 0.21% among 360,000 | Potency, µM (top dose mostly 92.2 µM), without a hit: top-dose activity change, negative = less growth; active = well fitted falling curve with a large enough effect; inconclusive = small, poorly fitted or top-dose-only effect; inactive = no such curve, though single readings can be large or run the other way;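 also: % is scaled to controls: 0 for no effect and ±100 for the full control effect; nearly all actives have a fitted effect of over 50% in size; the assay follows cell death caused by Vpr and the record does not say whether a fall means rescue or toxicity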
#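 Fission yeast RE007 carrying one integrated HIV-1 vpr copy, seeded at OD 0.01 in PMG+AL medium with 23 nL pinned compound. Grown 24 h at 30 degrees; viability read by BacTiter-Glo luminescence after 5 min.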
# * hit, by the source's call; ? = inconclusive; nt = not tested or not shown; [ ] = another dose, or the depositor's remark. Unless noted, calls follow the shape of the dose curve; as a rule, active = well fitted curve in the direction sought with a large enough effect; inconclusive = small, poorly fitted or top-dose-only effect, or another doubt; inactive = no such curve, though single readings can be large; an effect the other way counts as inactive or inconclusive. Potency is read from the fitted curve at half-maximal effect.
SMILES,StopGo reporter,Cruzain inh noDet,NS1 function inh,SARS PLpro yeast,MARV entry inh,Cruzain Triton,Lassa entry inh,RE007 growth inh
CCc1ccc(C(=O)CC2(O)C(=O)N(Cc3ccc(C)cc3)c3ccccc32)cc1 (stereo unspecified),-14%,?,nt,nt,-11%[46.1 µM],-6.5%,?,nt
CCOc1ccccc1C(=O)NC1CCN(Cc2ccccc2)CC1,-5%,nt,20%,2%,-26%,nt,2%,-4%
COc1cc2c(cc1OC)CN(C(=O)c1cccc(S(=O)(=O)N(C)C)c1)CC2,2%,nt,-6%,0%,nt,nt,nt,-7%
COc1ccccc1-c1cc(NC(=O)COc2ccccc2Cl)n(-c2ccccc2)n1,-11%,11%,nt,nt,nt,4.1%,-13%[46.1 µM],nt
COc1ccccc1NC(=O)CSc1nnnn1C1CCCCC1,-4%,nt,-6%,0%,3%[46.1 µM],nt,-5%,1%
CCCCCCCCCCCn1nnnc1N,2%,nt,nt,nt,nt,nt,-14%,25%
CCn1c(=O)n(CC)c2cc(S(=O)(=O)N3CCOCC3)ccc21,nt,1%,5%,5%,25%,-1.2%,4%,3%
COCc1c(C(=O)Nc2ccc3nc(N4CCOCC4)sc3c2)oc2ccccc12,25µM*,nt,nt,1%,?,nt,?,-18%
CCc1ccc(NC(=O)CSc2nnc(-c3nonc3NC(C)=O)n2-c2ccccc2)cc1,-9%,?,nt,nt,?,-6.2%,-10%[46.1 µM],nt
COCCCNc1nc2nonc2nc1N1CCN(C2CCCC2)CC1,5%,nt,2%,0%,-23%[46.1 µM],nt,-2%[46.1 µM],6%
COc1cccc(-c2noc(CCCC(=O)NCc3ccco3)n2)c1,5%,5%,nt,nt,1%[46.1 µM],-1.4%,1%[46.1 µM],nt
O=c1c2ccccc2c(C=Nc2ccc(O)cc2)c(O)n1-c1nccs1,?,nt,7%,0%,6%[46.1 µM],nt,?,3%
COCc1cc(C)nc(SCC(=O)Oc2ccc(Cl)cc2)c1C#N,33%[activator],nt,nt,-3%,8%[46.1 µM],nt,-4%,-13%
COc1cccc(NC(=O)CNC(=O)c2ccc(C)cc2)c1,9%,nt,-5%,-1%,nt,nt,nt,-12%
O=[N+]([O-])c1ccc(/C=N/N2CCN(Cc3ccccc3)CC2)cc1,1%,nt,-17%,8%,nt,nt,nt,-28%
CCn1c(C(=O)NCc2ccc(OC(C)C)cc2)cc2oc3ccccc3c21,-15%,-26%,nt,nt,nt,-12%,nt,nt
Cc1nn(C(C)(C)C)c(OC(=O)c2c(F)cccc2F)c1Sc1ccccc1,-38%,20%,nt,nt,12%[46.1 µM],-2.3%,-24%[46.1 µM],nt
CC1=CC(C)(C)Nc2cc(C)c(C)cc21,-16%,-5%,5%,-8%,0%,-7.6%,6%,-14%
N#Cc1cc([N+](=O)[O-])ccc1NC(=O)c1cccn(Cc2cccc(F)c2)c1=O,-18%,-24%,nt,nt,nt,-0.6%,0%[46.1 µM],nt
CCn1cc(CNC(=O)c2cc(-c3ccc(C)c(C)c3)nc3ccccc23)c(C)n1,-16%,?,nt,nt,-3%[46.1 µM],2.5%,?,nt
COc1ccc(N2CCN(C(CNC(=O)C3CCCCC3)c3ccco3)CC2)cc1 (stereo unspecified),-12%,nt,nt,3%,-12%,nt,1%,-4%
Cc1ccc(CNC(=O)CCSCc2ccc(C)cc2)cc1,1%,nt,-7%,-2%,-23%,nt,?,0%
S=c1[nH]nc(Cc2n[nH]c(=S)n2-c2ccccc2)n1-c1ccccc1,-8%,nt,12%,1%,nt,nt,nt,-11%
CC(C)CNC(=O)Cn1nc(C(F)(F)F)c2c1CCCC2,-5%,nt,3%,0%,?,nt,19%[46.1 µM],6%
COc1ccc(CCNC(=O)CS(=O)Cc2nc(-c3ccc(C)cc3)oc2C)c(OC)c1 (stereo unspecified),-4%,?,nt,nt,nt,-8.3%,-1%[46.1 µM],nt

# (more compounds)
SMILES,StopGo reporter,Cruzain inh noDet,NS1 function inh,SARS PLpro yeast,MARV entry inh,Cruzain Triton,Lassa entry inh,RE007 growth inh
Cc1cccc(OCC(=O)Nc2ccccc2N2CCCC2)c1C,-26%,nt,nt,-37%,?,nt,?,6%
CN(C)C(=O)COC(=O)/C=C/c1cn(-c2ccccc2)nc1-c1cccs1,0%,nt,nt,1%,-27%[46.1 µM],nt,9%,-5%
CCC(=NCc1cccnc1)c1c(O)n(-c2ccccc2)c(=O)[nH]c1=O,-22%,nt,-2%,1%,nt,nt,nt,11%
CC1CCN(C(=O)c2cc3c(ccc4ccccc43)o2)CC1,-22%,nt,-83%,-4%,nt,nt,nt,-7%
Cc1cc(C)cc(NC(=S)N(C)C)c1,2%,nt,2%,0%,-21%[14.2 µM],nt,-13%,-22%
Cn1c(=O)c2c(nc(NCc3ccco3)n2CCc2ccccc2)n(C)c1=O,20µM*,5%,-7%,3%,?,-4.2%,-17%,16%
CC(=O)c1cccc(NC(=O)CSc2ccc(-c3ccccn3)nn2)c1,-26%,nt,-117%,?,?,nt,?,-12%
CCOC(=O)C1CCN(C(=O)CCCCn2c(=O)[nH]c3ccccc3c2=O)CC1,-2%,-7%,-2%,1%,0%,-1.5%,-29%,18%
O=C(Nc1nn[nH]n1)c1cccc(Oc2ccccc2)c1,-13%,0%,-3%,-6%,6%,-2.1%,3%,-10%
CC(C)CN(C(=O)COC(=O)C12CC3CC(CC(C3)C1)C2)c1c(N)n(Cc2ccccc2)c(=O)[nH]c1=O,-18%,nt,nt,-5%,-1%[46.1 µM],nt,4%,-8%
CCOC(=O)c1sc(NC(=O)c2cc(-c3ccccc3C)nc3ccccc23)c(C#N)c1C,?,10µM*,17%,10%,?,-0.9%,11µM*,-2%
C=CCN(CC=C)CCCOc1ccc(C)cc1OC,-2%,nt,-1%,0%,4%[46.1 µM],nt,-2%,-15%
CCCCOc1ccc(C2(C)NC(=O)N(C)C2=O)cc1 (stereo unspecified),3%,nt,11%,-8%,nt,nt,nt,2%
Nc1c[n+](N2CCOCC2)no1,-7%,-3%,nt,nt,-1%,1.5%,nt,nt
Cc1cc(/C=C(\C#N)C(=O)NC2CCCCCC2)c(C)n1C,8%,2%,10%,18%,?,-3.4%,0%,1%
CCN(CC(=O)Nc1c(F)cccc1F)C(=O)c1cccnc1Sc1ccccc1,4%,nt,nt,5%,8%[46.1 µM],nt,-19%,11%
COCCNC(=O)CN(C(=O)Cn1nnc2ccccc21)c1ccccc1,8%,-10%,-4%,0%,-9%,8.7%,20%,8%
CC(C)CC(=O)N1CCN(S(=O)(=O)c2ccc(F)cc2)CC1,nt,6%,-10%,-3%,13%,1.1%,-5%,0%
COc1ccc(-n2nc(C(C)=O)c(=O)[nH]c2=O)cc1,-12%,nt,11%,1%,10%[46.1 µM],nt,?,-9%
CN(C(=O)c1cccc(C#N)c1)c1nnc(C2CCCO2)s1 (stereo unspecified),16%,-1%,1%,13%,-1%,-3.3%,-1%,-8%
CCOC(=O)c1ccc(NC(=O)c2cccnc2)cc1,39%[activator],nt,-9%,-11%,0%,nt,-3%,9%
CC(OC(=O)Cc1ccc(Cl)cc1)C(=O)NCCC1=CCCCC1 (stereo unspecified),-13%,19%,-16%,20%,-5%,-6.0%,7%,-29%
Cc1c(NC(=O)c2ccc(Cl)c(S(=O)(=O)N3CCCCC3)c2)c(=O)n(-c2ccccc2)n1C,-15%,nt,-5%,-1%,-8%,nt,-3%,-10%
COc1ccccc1OCC(=O)N1CCN(c2ccccc2OC)CC1,-16%,26%,3%,nt,3%,-2.9%,-15%,-5%
Cn1ncc2c(Nc3ccc(-c4ccccc4)cc3)ncnc21,nt,14%,-103%,-13%,2.9µM*,-11%,3.7µM*,9%

# Carrying on:
SMILES,StopGo reporter,Cruzain inh noDet,NS1 function inh,SARS PLpro yeast,MARV entry inh,Cruzain Triton,Lassa entry inh,RE007 growth inh
O=C(CN1C(=O)c2ccccc2C1=O)N1CCN(S(=O)(=O)c2ccccc2)CC1,-11%,nt,10%,0%,-3%[46.1 µM],nt,9%[46.1 µM],0%
Cc1ccc(-c2nnc(NC(=O)c3ccc([N+](=O)[O-])o3)o2)c(C)c1,-16%,nt,nt,5%,14%,nt,-4%,-17%
Cn1c(SCCc2ccc([N+](=O)[O-])cc2)nccc1=O,7%,nt,nt,nt,0%[46.1 µM],nt,16%[46.1 µM],5%
COc1cccc2sc(N3CCN(C(=O)c4ccc([N+](=O)[O-])o4)CC3)nc12,?,nt,nt,9%,-29%,nt,?,?
O=C(Nc1nnc(-c2ccco2)o1)c1ccc([N+](=O)[O-])s1,21%,nt,3%,-1%,?,nt,?,-12%
O=C(CSc1ncccn1)NCc1ccc(F)cc1,46%[activator],-7%,3%,-10%,?,0.4%,14%,-10%
Cc1[nH]c2ccccc2c1C(=O)C(=O)NCc1ccco1,-13%,nt,1%,-4%,-6%,nt,5%,-10%
Cc1ccc(-n2nc3c(c2NC(=O)C2CC2)CS(=O)(=O)C3)cc1C,-8%,nt,11%,25%,-8%,nt,-2%,1%
O=c1[nH]c(N/N=C\c2ccc3c(c2)OCO3)nc2ccccc12,-15%,nt,8%,-1%,-25%[46.1 µM],nt,?,7%
Cc1c(C(=O)NC(C)c2ccc(-n3ccnc3)cc2)cccc1[N+](=O)[O-] (stereo unspecified),-15%,nt,10%,-2%,-10%,nt,?,1%
Fc1ccccc1CCNCc1cccc2ccccc12,9%,-7%,-1%,5%,?,-4.8%,1%,0%
O=S(=O)(NCCc1cn2ccccc2n1)c1ccc2c(c1)CCCC2,14%,7%,-26%,12%,-20%,0.1%,?,0%
CC(=O)C(Cc1ccccc1)NC(=O)COC(=O)CCN1C(=O)C2CC=CCC2C1=O (stereo unspecified),-2%,nt,nt,1%,?,nt,14%,-14%
CCc1ccccc1OCCCCCNCCO,-19%,-9%,5%,-2%,?,1.0%,1%,-1%
COc1ccc(C(=O)NCCc2nnc(SCC(=O)Nc3ccc(Br)cc3)n2C)cc1,56%[activator],9%,?,5%,4%,2.3%,-8%[14.3 µM],-12%
Cc1c(C(=O)N2CCN(c3ccc(F)cc3)CC2)oc2c1C(=O)CCC2,?,nt,7%,?,nt,nt,nt,5%
CC(=NCc1ccco1)c1c(O)n(-c2ccccc2)c(=O)[nH]c1=O,-9%,-7%,29%,-2%,10%,5.1%,-2%,12%
